CDC25B-CDK2 inh = human CDC25B-CDK2/CyclinA binding inhibition | P30305+P24941 | HTRF CDC25B-CDK2/CyclinA binding, anti-His/anti-Flag; hits give high values | z-score (test concentration not listed) | 0.72% of 94,000 active | AID 1259370;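 also: score is relative to mean and SD of negative controls; strong numbers were not always called active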
TAR Tat displ = HIV-1 TAR-Tat binding disruption; HIV-1 TAR RNA, Tat peptide displacement FRET; hits give high values; z-score (concentration not given with the values); 0.6% of 100,000 active;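 also: score is relative to mean and SD of negative controls; some compounds called inactive have numbers as strong as hits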
An asterisk follows results filed as active; x = not tested or not shown.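 The calls were made as follows: active = z-score from 3 up in half or more of its runs; inactive = the rest.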 Random draw from the library (roughly 0.89% active in at least one column).

Start of the data: the first 4 compounds, ahead of the listing:
nr	Compound	CDC25B-CDK2 inh	TAR Tat displ
1	Cc1ccc(NC(=O)N2CCn3c(C)ccc3C2C(C)C)cc1F (stereo not drawn)	x	0.19
2	COc1ccc(OC)c(C2N=C(N)Nc3nc4ccccc4n32)c1 (stereo not drawn)	-2.79	0.11
3	O=C(NC1CCCC1)c1ccc2c(c1)nc1n2CCCCC1	x	-0.24
4	C[n+]1cc(-c2ccccc2)nc(N2CCOCC2)n1	-1.85	0.34

The list itself, from the first entry:
nr	Compound	CDC25B-CDK2 inh	TAR Tat displ
1	Cc1ccc(NC(=O)N2CCn3c(C)ccc3C2C(C)C)cc1F (stereo not drawn)	x	0.19
2	COc1ccc(OC)c(C2N=C(N)Nc3nc4ccccc4n32)c1 (stereo not drawn)	-2.79	0.11
3	O=C(NC1CCCC1)c1ccc2c(c1)nc1n2CCCCC1	x	-0.24
4	C[n+]1cc(-c2ccccc2)nc(N2CCOCC2)n1	-1.85	0.34
5	Cc1ccccc1-c1nc(SCc2cc(=O)n3nc(C4CC4)sc3n2)n[nH]1	x	-0.46
6	Cc1cc(-c2noc(-c3cc(C)on3)n2)no1	0.93	x
7	CCCCSc1nc2c(c(=O)[nH]1)C(c1ccccc1)C(C(=O)OC)=C(C)N2 (stereo not drawn)	-2.16	0.33
8	O=C1C2ON(c3ccccc3)C(c3cccs3)C2C(=O)N1c1cccc(Cl)c1 (stereo not drawn)	-1.31	x
9	Cc1ccc(-n2ncc3c(N(CCO)Cc4ccccc4)ncnc32)cc1C	x	2.13
10	CCCCC(=O)Nc1ccc2c(c1)nc(Cn1ccnc1C)n2CCC	-2.62	1.69
11	O=C1c2ccccc2C(=O)C1c1ccc(O)cc1	-1.04	1.21
12	CC1(C(=O)c2ccccc2)C2c3cc(Br)ccc3OC(=O)C21C(=O)NCc1ccccc1 (stereo not drawn)	-0.54	-0.27
13	Cc1csc(NC(=O)C(=O)c2cc(C)n(-c3ccc(Cl)cc3)c2C)n1	-2.2	2.16
14	O=C(CSc1nc2ncccc2n2cccc12)NCC1CCCO1 (stereo not drawn)	x	-7.47
15	O=S(=O)(c1ccc(-n2cccn2)cc1)N(Cc1ccccn1)Cc1ccccn1	-1.45	x
16	CC1CCN(c2nc3c([nH]2)c(=O)n(C)c(=O)n3C)CC1	-0.45	x
17	COC(=O)c1cc(S(=O)(=O)N2CCCc3ccccc32)cn1C	0.34	0.39
18	CCOc1ccc(-c2nc3c(=O)n(C)c(=O)nc-3n(C)n2)cc1OC	-0.6	1.94
19	COc1ccc(OC)c(C2C(C#N)=C(C)NC3=C2C(=O)CC(c2ccc(Cl)cc2)C3)c1 (stereo not drawn)	-1.88	2.35
20	Cn1cnc(S(=O)(=O)NCCc2ccc(Cl)cc2)c1	x	1.67
21	N=C1C(c2nc3ccccc3c(=O)[nH]2)=C(O)CN1c1ccccc1F	-0.34	0.78
22	COc1ccccc1CN(CCS(=O)(=O)N1CCNCC1)S(=O)(=O)c1ccccc1	x	2.46
23	CN1C(C(=O)NC(C)(C)C)=CC(c2cccs2)=NS1(=O)=O	-0.98	2.09
24	CC(C)c1ccc(CNCCSc2nnnn2C)cc1	-0.61	0.44
25	Cc1ccc(Nc2ncnc3c2cnn3C)cc1F	x	-0.17
26	CCN(CC)S(=O)(=O)c1ccc2c(c1)N(CC(=O)N1CCOCC1)C(=O)C1CCCCN21 (stereo not drawn)	x	2.02
27	O=S(=O)(CN(CS(=O)(=O)c1ccccc1)c1ccc(Br)cc1F)c1ccccc1	-2.73	x
28	Cc1ccccc1Cn1c(CO)nc2ccccc21	-0.61	0.21
29	COC(=O)c1ccc(CSc2nnc(-c3ccc4c(c3)OCCCO4)n2C)o1	x	-0.15
30	OCCCc1nc2cc3ccccc3cc2[nH]1	-3.01	1.66
31	COc1ccc(Cn2cc(C(=O)c3ccc(Cl)cc3)c(=O)c3cc4c(cc32)OCCO4)cc1	-1.33	0.27
32	Cc1ccc2cc(-c3noc(C4CCCO4)n3)c(=O)[nH]c2c1 (stereo not drawn)	-1.66	2.03
33	CC(C)(C)NC(=O)CSc1nnc([C@H](Cc2ccccc2)NC(=O)OC(C)(C)C)o1	-1.88	x
34	CC(C)CNc1ncnc2c1oc1nc3c(cc12)COC(C)(C)C3	x	-0.12
35	COc1ccc(N=CC2=C(O)CC(c3cccs3)CC2=O)cc1 (stereo not drawn)	-1.91	x
36	Cc1cccc(OCc2nn3c(-c4ccccc4)nnc3s2)c1	-0.89	3.46
37	CCCNC(=O)c1cc2n(n1)CC(C)(C(=O)NC1CCCCC1)N(C)C2=O (stereo not drawn)	x	0.63
38	COc1cc2c(cc1OC)n(CC(=O)NCCCOC(C)C)n1c(C)cc(=O)nc21	-0.7	-0.65
39	CN1Cc2sccc2C(c2ccc(O)c(O)c2)C1 (stereo not drawn)	-1.34	x
40	CCCN1CNC(=S)N(c2ccccc2OC)C1	1.23	x
41	COc1cccc(-c2nnc(SCCOc3ccccc3)o2)c1	-0.28	-0.14
42	CCCS(=O)(=O)Nc1cccc(-c2cn3ccccc3n2)c1	-1.72	1.87
43	O=C(CC(=O)Nc1ccc(Cl)cn1)Nc1ccc2nc3n(c(=O)c2c1)CCCCC3	-0.59	1
44	C=CCn1c(N)cc(=O)nc1SCC(=O)N1CCN(c2ccc(F)cc2)CC1	0.57	0.7
45	CCc1ccccc1N(C)S(=O)(=O)c1c(C)noc1/C=C/N1CCOCC1	x	2.47
46	CCOC(=O)C(O)(NC(=O)c1cccnc1)C(F)(F)F (stereo not drawn)	-1.61	x
47	S=C1NCN(CCN2CCCC2)CN1	-2.16	x
48	COc1cccc(-n2c(CCC(=O)O)ccc2-c2cccs2)c1	0.94	0.27
49	CCOc1ccc(-c2nc3n(n2)C(c2ccc(OC)cc2)C2=C(CC(C)(C)CC2=O)N3)cc1 (stereo not drawn)	-2.65	0.05
50	O=C1c2cnccc2CN1Cc1ccco1	x	0.97
51	O=C(Cn1cc(SCC(=O)N2CCCc3ccccc32)c2ccccc21)N1CCOCC1	x	0.16
52	O=C(NC1(C(F)(F)F)Oc2ccccc2O1)N1CCCC1	0.35	x
53	CCCCCCCCCCCCCC[C@@H](O)[C@@H](O)[C@@H](N)CO	x	3.77
54	Cc1c2occ(-c3ccc4c(c3)OCO4)c2cc2c3c(c(=O)oc12)CCC3	-0.6	x
55	O=C(Nc1c[nH]c2ccccc2c1=O)N1CCC(Cc2ccccc2)CC1	-2.3	-0.72
56	Cc1cc(C)n(Cc2c(C(=O)NCCN3CCOCC3)noc2C)n1	x	-0.39
57	Cc1n[nH]c(C)c1NC(=O)c1cc2c(C)nn(-c3ccccc3)c2s1	-1.61	-0.82
58	CSC1=CC(=O)CC(C)(C)S1	-1.95	x
59	CCCCCCCOC(=O)C1=C(C)Nc2ncnn2C1c1ccc(N(C)C)cc1 (stereo not drawn)	0.55	0.07
60	CCN1CCN(C2=NS(=O)(=O)C(c3cccc(Cl)c3)=C2C)CC1	-0.62	-0.22

Some of the entries so far, as labelled records:
[53] CCCCCCCCCCCCCC[C@@H](O)[C@@H](O)[C@@H](N)CO
  CDC25B-CDK2 inh = x; TAR Tat displ = 3.77

[57] Cc1n[nH]c(C)c1NC(=O)c1cc2c(C)nn(-c3ccccc3)c2s1
  CDC25B-CDK2 inh = -1.61; TAR Tat displ = -0.82

[58] CSC1=CC(=O)CC(C)(C)S1
  CDC25B-CDK2 inh = -1.95; TAR Tat displ = x

(further entries)
nr	Compound	CDC25B-CDK2 inh	TAR Tat displ
61	CC(C)CCn1c(=O)c2sccc2n2c(CCCC(=O)N3CCCC3)nnc12	x	-0.99
62	COc1ccc(S(=O)(=O)c2cnc3cc(OC)c(OC)cc3c2Nc2ccc(F)cc2)cc1	0.55	0.23
63	S=c1[nH]nc(-c2c(-c3ccccc3)c(-c3ccccc3)nn3nnnc23)o1	2.2	x
64	CCC1=NN(C(=O)c2ccco2)C(O)(C(F)(F)F)C1 (stereo not drawn)	-1.03	x
65	CCSc1nnc(NC(=O)c2cc(=O)c3cc(CC)ccc3o2)s1	-2.04	0.31
66	Cc1noc(C)c1-n1sc(=O)n(CC2CC2)c1=O	0.75	x
67	Cn1c(SCC(=O)N2CCc3ccccc32)nc2c(c1=O)SCC2	0.72	2.46
68	Cc1ccc(Nc2nc3ccccc3n3nnnc23)cc1F	0.05	-1.42
69	CCOC(=O)c1c(S(=O)(=O)NCCCN2CCCC2=O)c(C)n(C)c1C	x	0.95
70	O=C(CSc1cn(CCNC(=O)c2cccs2)c2ccccc12)Nc1ccc2c(c1)OCCO2	0.3	1.96
71	CC(C)N1C(C(=O)Nc2ncccn2)=C(O)c2ccccc2S1(=O)=O	-1.12	-1.34
72	O=C(Nc1cccc(Cl)c1)Nc1nnc(Cc2ccc([N+](=O)[O-])cc2)s1	-2.48	x
73	Cn1ncc2c(NCc3ccccc3)nc(NCCCO)nc21	x	1.84
74	O=C(NCCN1CCOCC1)C1CCCN(c2nn3c(=O)c4c(nc3s2)CCCC4)C1 (stereo not drawn)	x	0.7
75	CC(=O)c1c(C)[nH]c(C(=O)Nc2ccc(C)cn2)c1C	-0.89	x

2 records picked at random from those above, as already listed:
nr	Compound	CDC25B-CDK2 inh	TAR Tat displ
72	O=C(Nc1cccc(Cl)c1)Nc1nnc(Cc2ccc([N+](=O)[O-])cc2)s1	-2.48	x
70	O=C(CSc1cn(CCNC(=O)c2cccs2)c2ccccc12)Nc1ccc2c(c1)OCCO2	0.3	1.96

(cont.)
nr	Compound	CDC25B-CDK2 inh	TAR Tat displ
76	CCOc1ccc(NC(=O)C2CCN(C(C)=O)CC2)cc1	-1.07	x
77	Cc1cc(C)n(-c2nc3ccccc3nc2N2CCN(Cc3ccccc3)CC2)n1	-0.29	0.67
78	Fc1ccc2c(c1)/C(=N/Nc1ncc(C(F)(F)F)cc1Cl)CCS2	0.85	x
79	COC(=O)C1=C(OC(=O)C(C)(C)C)c2ccccc2S(=O)(=O)N1C(C)C	-0.02	-0.27
80	Cc1noc(C)c1S(=O)(=O)N1CCC(C(=O)N2CCC(N3CCCCC3)CC2)CC1	-0.63	x
81	c1ccc(-c2cnc(-c3ccccc3)nc2)cc1	0.88	x
82	O=C(CCC1N=C2c3ccccc3N=C(SCC(=O)c3ccccc3)N2C1=O)NCc1ccco1 (stereo not drawn)	x	0.94
83	Cc1nnsc1C(=O)N1C[C@@H]2CCCC[C@@H]2C[C@@H]1C(=O)NC(C)(C)C	0.11	x
84	Cn1ncc2c(N3CCC(O)CC3)ncnc21	x	0.92
85	CCN(CC)CCNC(=O)c1c(O)c2ccccc2n(CC)c1=O	1.53	1.84
86	CCOC(=O)c1[nH]c(C)c(S(=O)(=O)NCc2nn(-c3ccccc3)nc2C)c1C	-1.27	x
87	Cc1c(C(=O)Nc2ccccc2)sc2cc(C(C)(C)C)sc12	-2.26	x
88	Cc1ccc(N2CCN(c3c(-c4ccc5c(c4)OCC(=O)N5)c(=O)c3=O)CC2)c(C)c1	x	0.25
89	CCCOC(=O)C1=C(C)NC2=C(C(=O)CC(c3ccccc3)C2)C1c1cc2c(cc1Cl)OCO2 (stereo not drawn)	-0.06	0.26
90	O=C(O)C1=CC(c2cc(F)ccc2F)n2nnnc2N1 (stereo not drawn)	x	-0.15
91	O=C1c2cccnc2C(=O)N1Cc1ccc2c(c1)OCO2	0.76	0.14
92	O=C(CN1C(=O)COc2ccc(S(=O)(=O)N3CCCCC3)cc21)NC1CCCC1	x	0.14
93	Cc1ccc(NC(=O)c2ccc3nn(CC(=O)Nc4ccc(Br)cc4)c(=O)n3c2)cc1	-0.97	0.34
94	COC(=O)NC(=O)c1c(NC(=O)c2ccc3c(c2)OCCO3)sc(C)c1C	x	0.94
95	COc1ccc(Cl)cc1N1C(=O)c2nccnc2C1=O	-1.31	-1.19
96	Cc1ccc(C2NC(=O)NC(O)(C(F)(F)F)C2C(=O)c2cccs2)o1 (stereo not drawn)	-2.25	x
97	CCOC(=O)N1CCN(C(=O)CSc2nnc(COc3ccccc3)o2)CC1	1.31	1.5
98	CN(CC1CCCO1)C1CCN(S(=O)(=O)c2csc(C(N)=O)c2)CC1 (stereo not drawn)	x	0.82
99	N#Cc1nc(/C=C/c2cccs2)oc1NC1CCCCC1	-0.07	0.77
100	O=C1CC(c2ccc(F)cc2)c2ccc3ccccc3c2N1 (stereo not drawn)	0.71	1.02
101	N=C1C(c2nc3ccccc3s2)=C(O)CN1Cc1ccccn1	-1.36	0.41
102	NC(=O)c1cc(S(=O)(=O)Nc2ccc3c(c2)OCCO3)cs1	x	-0.65
103	Cc1cc(Nc2ccc(N(C)C)cc2)ncn1	0.76	1.59
104	COc1ccc(CN(c2nc3nc(C)cc(C)n3n2)S(=O)(=O)c2ccc(C)cc2)cc1OC	-0.8	0
105	Cc1ccc(-c2onc(C)c2C)cc1S(=O)(=O)N1CCCC(C)C1 (stereo not drawn)	x	1.07
106	O=C(NC1CCCCC1)C(c1ccccc1)N(C(=O)c1cnccn1)c1cccs1 (stereo not drawn)	-1.43	-0.59
107	CCc1nn2c(=O)cc(CSc3n[nH]c(-c4ccccc4F)n3)nc2s1	x	0.79
108	COc1cc(OC)c(Nc2nc3ccccc3n3c(C)nnc23)cc1Cl	1.27	0.12
109	CC1CCCCN1C(=O)c1ccc2c(=O)n3c(nc2c1)CCCCC3 (stereo not drawn)	0.3	-0.11
110	CCN(CC)CCCC(C)NC(=O)c1c(O)c2c([nH]c1=O)CCCC2 (stereo not drawn)	x	2.24
111	CCC(C)(C)NS(=O)(=O)c1ccc2c(c1)CCCC(=O)N2	x	-1.01
112	COc1ccc(CCN2CCC(CNS(=O)(=O)c3cnc[nH]3)CC2)cc1	x	-0.08
113	O=C(Nc1ccccc1Cl)N1CCN(c2ccc3nnc(-c4ccccc4)n3n2)CC1	-1.89	x
114	CCCCSc1nc2n(n1)C(c1ccccc1OCC)C1=C(CC(C)(C)CC1=O)N2 (stereo not drawn)	0.84	1.04
115	O=c1[nH]c2ccc(Nc3cc(N4CCCCC4)ncn3)cc2[nH]1	1.79	-5.38
